# Vif A3G = inhibitors of Vif binding to APOBEC3G peptide, primary screen, biochemical, TR-FRET, GST-Vif 1-94, biotin-A3G peptide, dose response retest (AID 1117319) | inhibition, %, or IC50 in µM where a hit was titrated | TR-FRET GST-Vif / biotin-A3G peptide binding; higher % means a stronger effect; test concentration not given here; strong numbers were not always called active | Virion infectivity factor (Human immunodeficiency virus type 1 group M subtype B (isolate … | 260,000 tested, 0.57% active;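 active = above the screen mean plus three standard deviations and confirmed in dose response; inconclusive = results disagree or hit not tested in dose response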;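 also: Vif residues 1-94 fused to GST binding biotinylated APOBEC3G peptide 110-148; 0% = full assay without inhibitor and 100% = GST in place of GST-Vif; retest series ran down from 100 µM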
# MLL AF4-AF9 inh = inhibitors of AF4 peptide binding to AF9, primary screen, biochemical, AlphaScreen, biotin-AF4 peptide, FLAG-AF9, single point; Protein AF-9 (Homo sapiens), P42568; inhibition, % at 10 µM; 350,000 tested, 0.47% active; AID 651704, 2012;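 active = every replicate reaching a set inhibition limit, whatever the replicate mean, cut at about 25% in these data; inconclusive = mean inhibition reaches that limit but some replicates miss it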;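 also: 0% = plate neutral control median and 100% = total signal loss; the record names both 10 and 1 µM as test concentration; the first replicate is given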
# Target sequence (P42568 whole entry, looked up): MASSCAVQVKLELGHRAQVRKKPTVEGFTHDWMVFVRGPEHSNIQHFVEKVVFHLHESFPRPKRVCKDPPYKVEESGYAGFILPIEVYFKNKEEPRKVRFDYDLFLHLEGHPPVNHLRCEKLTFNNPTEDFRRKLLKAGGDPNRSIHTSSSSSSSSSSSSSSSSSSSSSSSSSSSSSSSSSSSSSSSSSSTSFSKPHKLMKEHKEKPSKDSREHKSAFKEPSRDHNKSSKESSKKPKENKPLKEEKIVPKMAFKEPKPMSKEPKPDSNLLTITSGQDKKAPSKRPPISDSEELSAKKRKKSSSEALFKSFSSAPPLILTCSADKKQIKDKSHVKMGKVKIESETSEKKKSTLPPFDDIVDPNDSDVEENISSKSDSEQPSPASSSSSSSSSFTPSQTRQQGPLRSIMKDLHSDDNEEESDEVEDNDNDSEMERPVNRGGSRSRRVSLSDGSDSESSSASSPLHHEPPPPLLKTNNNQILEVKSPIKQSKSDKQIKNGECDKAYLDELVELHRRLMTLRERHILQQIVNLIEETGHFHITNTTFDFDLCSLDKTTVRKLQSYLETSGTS
# HNF4A DNA FP = change in binding of human HNF4A to DNA, primary screen, biochemical, fluorescence polarization, FITC-DNA; Hepatocyte nuclear factor 4-alpha (Homo sapiens), P41235; 1 h; activity change, % at 10 µM; 360,000 tested, 0.3% active; AID 1224865, 2016; in the data active = activity change above about 30%, passing the limit was not always enough;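 also: controls were the assay level and a saturating level of protein; the project sought stronger binding though the title names inhibitors; some compounds called inactive have numbers as strong as hits; positive values seem to mean higher polarization but the record does not say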
# Target sequence (P41235 whole entry, looked up): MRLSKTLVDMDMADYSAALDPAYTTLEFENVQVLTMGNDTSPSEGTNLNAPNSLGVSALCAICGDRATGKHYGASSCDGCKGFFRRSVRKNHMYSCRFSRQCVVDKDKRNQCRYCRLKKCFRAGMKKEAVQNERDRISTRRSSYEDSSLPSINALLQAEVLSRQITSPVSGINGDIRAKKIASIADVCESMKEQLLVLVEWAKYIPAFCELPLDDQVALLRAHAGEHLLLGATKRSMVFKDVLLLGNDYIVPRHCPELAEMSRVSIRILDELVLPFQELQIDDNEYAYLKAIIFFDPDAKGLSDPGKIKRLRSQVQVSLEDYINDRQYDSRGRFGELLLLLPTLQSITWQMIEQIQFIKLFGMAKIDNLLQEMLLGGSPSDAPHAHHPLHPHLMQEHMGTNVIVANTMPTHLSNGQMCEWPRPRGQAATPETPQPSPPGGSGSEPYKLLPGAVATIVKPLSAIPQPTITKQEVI
# FGF22 binding = binders of human FGF22 protein, primary screen, FGF22 synaptogenesis inhibitor project, biophysical, thermal shift, single point | 340,000 tested, 1.5% active | calls only at 9.99 µM | recombinant FGF22 thermal shift, SYPRO orange fluorescence; percent of sucrose octasulfate shift, DMSO zero | AID 651658, 2012 | Fibroblast growth factor 22 (Homo sapiens), Q9HCT0;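 active = melting point raised past a set limit in the mean and every replicate; inconclusive = no clear call; three in four hits are not shown here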
# UCH37 inh = inhibitors of human UCH37 deubiquitinase, primary screen, biochemical, Ub-AMC cleavage, fluorescence; Ubiquitin carboxyl-terminal hydrolase isozyme L5 (Homo sapiens), Q9Y5K5; purified proteasome/UCH37; inhibition, % (concentration not given with the values); 330,000 tested, 0.33% active;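 active = mean of two replicates above 20%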;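 also: 0% = compound-free wells with enzyme and 100% = wells lacking proteasome; stock transfer was 100 nL into about 20 µL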
#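 System: Proteasome-associated human UCH37 deubiquitinase; Input: 0.15 nM proteasome in added enzyme buffer; Also added: Ub-AMC substrate from 1 µM stock; Incubation: 30 min compound-proteasome preincubation then 25 min substrate reaction, room temperature; Detection: fluorescence, ex 355 nm, em 460 nm; Read-out: % inhibition of Ub-AMC cleavage fluorescence; Benchmarks: no-proteasome and no-compound wells.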
# Ecoli growth = E. coli growth inhibition, primary screen, OD600; Escherichia coli growth, 23 h; hits give low values; OD600 absorbance (no concentration beside the values); 330,000 tested, 0.21% active;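 active = OD600 absorbance below the run mean of sample wells minus 3.6 SD, in any replicate, cut at about 0.56 in these data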;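 also: stock transfer was 300 nL into about 60 µL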
# RanGTP-Imp inh = inhibitors of RanGTP-importin-beta interaction, primary screen, biochemical, FRET, CFP-Ran, YFP-importin-beta, homogeneous | Ran GTPase (GTP-bound) - importin-beta complex | cell-free CFP-Ran/YFP-importin-beta FRET ratio | inhibition, % (concentration not given with the values) | 300,000 tested, 1.1% active | AID 2216, 2009;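 active = most replicates above 15%; inconclusive = exactly half above 15%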;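 also: 0% = DMSO wells and 100% = Ran loaded with GDP instead of GTP; wells of about 40 µL received 100 nL stock; the first replicate is given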
# Active calls of the source: *; i = inactive; ? = inconclusive; . = no result given; & = joins results of further samples. A portion of the library, so the mix of outcomes need not match the whole.
SMILES,Vif A3G,MLL AF4-AF9 inh,HNF4A DNA FP,FGF22 binding,UCH37 inh,Ecoli growth,RanGTP-Imp inh
COc1ccc(C2=NS(=O)(=O)N(C)C(C(=O)NCc3ccccc3)=C2)cc1OC,.,3.5,-1.7,i,5.0,0.68,-0.7
c1ccc(-c2cc3c(ccc4nonc43)nn2)cc1,5%,.,3.5,.,4.9,0.66,-1.4
CC(=O)c1ccc(NC(=O)[C@@H]2CCCN2C(=O)OC(C)(C)C)cc1,-1%,-4.0,2.9,i,3.7,0.67,-0.8
O=C(CN1CCCC1)NC(c1ccccc1)c1ccccc1,.,-0.7,2.0,i,5.0,0.63,-0.9
COc1ccc2oc(=O)c(C(=O)NC3CCCCCC3)cc2c1,.,-0.5,2.9,i,-175,0.62,?
CCn1c(CCC(=O)Nc2nc3c(s2)CCCC3)nc2cc(S(=O)(=O)N(C)C)ccc21,-2%,.,2.5,.,1.7,0.71,?
CC(C)CNC(=O)c1noc2c1CCCC2,-3%,6.9,3.1,i,3.7,0.69,0.8
CCCCNC(=O)CCn1c(=O)c2cccn2c2ccc(F)cc21,-4%,0.3,-1.8,i,1.1,0.66,-0.6
CN(CCc1ccccn1)Cc1ccc(Cl)c(Cl)c1,1%,0.7,-1.2,i,3.4,0.66,-0.9
Cc1nc(C(F)(F)F)ccc1C(=O)N1CCC1(C)C(=O)NS(C)(=O)=O (stereo unspecified),.,-0.8,-2.0,i,.,.,.
CC(C)Sc1nc2sccc2c(=O)n1-c1ccccc1,.,-1.7,4.7,i,4.3,0.71,2.6
CCn1ccc(C(=O)Oc2ccc(C(C)C)cc2)n1,3%,4.5,0.5,.,-1.1,0.71,?
COc1ccc(OC)c(N(CC(=O)N2CCCC2)S(=O)(=O)c2ccccc2)c1,.,-22,-3.7,i,0.1,0.7,4.0
COCCCNC(=O)c1ccccc1N(Cc1ccccc1)S(=O)(=O)c1ccc(OC)cc1,.,-15,3.9,i,2.6,0.69,?
CN(C)C1(CNCC(O)c2ccccc2)CCCCC1 (stereo unspecified),7%,-3.4,-1.0,i,4.9,0.7,-0.9
O=c1c2ccccc2[nH]c2ccc(O)cc12,24%,-5.6,-23,i,-346,0.61,166*
NC(=O)Cc1nc(-c2ccc(Br)cc2)cs1,14%,-3.3,0.6,i,0.8,0.64,-1.6
CN1CCN(CC(=O)Nc2c(C(=O)c3ccccc3)oc3ccccc23)CC1,.,16,0.5,i,3.7,0.69,-3.2
Cc1c(NC(=S)NC(=O)c2ccc(Br)o2)c(=O)n(-c2ccccc2)n1C,-13%,-1.6,-0.8,i,1.8,0.67,?
COc1ccccc1NC(=O)Cn1nnc(-c2ccccc2NC(=O)c2ccco2)n1,-4%,.,-1.8,.,1.3,0.73,2.9
COc1ccc(Nc2nc(NC(C)(C)C)nc(N3CCCC3)n2)c(OC)c1,3%,.,-0.8,.,0.6,0.7,-3.8
COc1ccc(/C=C2\SC(=O)N(CC(=O)Nc3cccnc3)C2=O)cc1OC,2%,2.2,-1.8,i,1.9,0.71,?
Nc1c(C(=O)Nc2ccc3c(c2)OCCO3)nnn1Cc1cccc(Cl)c1,9%,11,-1.9,i,5.1,0.65,-0.2
COc1cc(CNCC(C)C)c(Br)cc1OCC(=O)NCc1ccccc1,11%,.,2.4,.,-0.2,0.64,4.6
O=C(CCn1c(=O)c2sccc2n(Cc2cc(=O)n3ccccc3n2)c1=O)NCc1ccco1,14%&-10%,.,1.9,.,-24,0.65,4.0
COCCCN(C(=S)NC(=O)c1ccc(C(C)(C)C)cc1)c1c(N)n(Cc2ccccc2)c(=O)[nH]c1=O,.,.,-1.3,.,0.7,0.71,-1.7
CCOC(=O)c1c(NC(=O)OC)sc(C(=O)N(CC)CC)c1C,-6%,.,3.3,.,5.2,0.69,0.0
NS(=O)(=O)c1ccc(CCNC(=O)CC(NC(=O)c2ccccc2Cl)c2ccccc2)cc1 (stereo unspecified),.,-0.5,-2.5,i,5.1,0.67,-1.4
S=c1[nH]nc(-c2ccco2)n1/N=C/c1ccc(Cl)cc1Cl,1%,.,0.3,.,.,.,-4.1
CCCNC(=S)N1CCC(NC(=O)c2ccc(OC)cc2)CC1,.,-0.4,3.9,i,0.2,0.63,0.2
COC(=O)c1ccc2c(c1)c(-c1ccccc1)c(-c1ccccc1)n2C,3%,-21,-0.7,i,-65,0.72,.
Clc1cccc(/C=N/Nc2ncnc3ccccc23)c1,10%,.,3.5,.,.,.,5.7
O=C1C(=O)N(CCCN2CCOCC2)C(c2ccc(Cl)cc2)/C1=C(/O)c1ccc(F)cc1 (stereo unspecified),.,-8.0,-1.6,i,12,0.63,1.9
N#Cc1c(N)n(-c2cccc(O)c2)c2nc3ccccc3nc12,11%,-9.7,4.1,i,i,0.69,27*
CCOC(=O)c1[nH]c(C)c(CC(C)C)c1C,.,.,-2.8,.,2.1,0.69,-0.6
O=C(CCC(=O)N1CCCC1)Nc1nnc(C2CCCCC2)s1,-1%,.,-1.3,.,-0.6,0.72,?
O=C(Nc1ccncc1)C1CCC(CNS(=O)(=O)c2cccc3nsnc23)CC1 (stereo unspecified),.,1.9,2.4,i,3.1,0.7,-0.4
CCOC(=O)c1cccnc1SCC(=O)N(CC)c1cccc(C)c1,-4%,.,1.9,.,3.3,0.73,8.4
Cc1cccc(OCCNC(=O)c2ccc(Oc3ccc(C(F)(F)F)cc3[N+](=O)[O-])cc2)c1,-2%,.,6.0,.,1.8,0.7,-6.1
O=C(Nc1ccccc1C(=O)O)c1cccc(C(=O)Nc2ccccc2C(=O)O)c1,.,-1.3,-1.9,.,13,0.71,3.1
COc1cc(F)c(C2=CC(=O)C[C@H](c3ccc(F)cc3)C2)cc1F,.,-0.5,1.6,i,1.5,.,.
COc1cc(/C=N/NC(=O)CCC(=O)Nc2ccc(F)cc2)ccc1O,-2%,-1.3,2.9,i,.,.,-2.8
Cc1nc(N(CCO)C2CCCCC2)c2nnn(Cc3ccccc3)c2n1,.,0.8,-1.4,i,2.4,0.68,-1.8
CON(C)c1nc(NCC(C)C)nc(OCC#N)n1,27%,.,0.2,.,4.6,0.7,1.1
Cn1c(=O)[nH]c(=O)c2c1nc(CN1CCN(c3cccc(Cl)c3)CC1)n2CCCc1ccccc1,3%,6.0,2.1,i,7.2,0.74,?
COc1ccc(S(=O)(=O)NC2CCCCC2)c(C)c1C,8%,.,-1.7,.,2.0,0.73,1.1
CC1CCC(C(=O)NC(C(=O)Nc2ccccn2)C(C)C)CC1 (stereo unspecified),-2%,5.0,-0.5,.,-1.6,0.61,1.8
CC(C)C[C@@H](CNCC(=O)[C@H](CC(C)C)NC(=O)c1[nH]cnc1C(=O)N[C@H](CN)CC(C)C)NC(=O)c1nc[nH]c1C(=O)N[C@@H](CC(=O)O)C(=O)O,-5%,0.5,-0.2,i,.,.,.
COC(=O)[C@H](CC(C)C)NCc1cccc(CN[C@@H](CC(C)C)C(=O)OC)c1,.,-1.9,4.7,i,10,.,1.2
O=C(NCc1ccccc1F)C1CCCN(C(=O)NC2CCCCC2)C1 (stereo unspecified),3%,.,0.4,.,2.1,0.67,-1.5
Nc1nc(COC(=O)C2CC(=O)N(Cc3ccccc3)C2)nc(Nc2ccccc2)n1 (stereo unspecified),-12%,-21,0.8,i,1.8,0.69,.
Cc1c(C)c2c(c(C)c1O)CC[C@@](C)(CCC[C@H](C)CCC[C@H](C)CCCC(C)C)O2,.,.,1.6,.,0.8,.,7.1
CCCCCCn1c(CN2CCN(C(=O)OCC)CC2)nc2c1c(=O)n(C)c(=O)n2C,.,.,0.5,.,6.5,0.67,4.1
Cc1ccc(S(=O)(=O)N2CCN(C(=O)c3ccc(Br)o3)CC2)c(C)c1,.,3.1,5.1,i,0.5,0.65,2.5
COc1cc(OC)cc(C(=O)NCC(=O)OCC(=O)c2cc(OC)ccc2OC)c1,15%,.,2.1,.,2.3,0.67,0.0
Cc1ccc2cc(CN(c3ccc(C)c(C)c3)S(C)(=O)=O)c(=O)[nH]c2c1,-10%,0.1,-4.1,i,-4.3,0.69,-0.3
CSc1nnc(SCC(=O)N(C)c2c(N)n(Cc3ccccc3)c(=O)[nH]c2=O)s1,13%,-0.4,0.6,i,-2.4,0.69,-0.8
NS(=O)(=O)c1ccc(-c2ccc(/C=C3\NC(=S)NC3=O)o2)cc1,.,-66,36*,i,.,.,0.4
COCCCn1cc(CN2CC(N3CCN(CCO)CC3)CS2(=O)=O)nn1 (stereo unspecified),.,-2.2,-2.0,i,.,.,.
Cc1cccc(OCC(=O)Nc2cc(NC(=O)COc3cccc(C)c3C)cc(C(=O)O)c2)c1C,.,1.2,-0.7,i,-0.4,0.72,-3.1
# (cont.)
SMILES,Vif A3G,MLL AF4-AF9 inh,HNF4A DNA FP,FGF22 binding,UCH37 inh,Ecoli growth,RanGTP-Imp inh
CCOc1cc(N2CCOCC2)c(OCC)cc1NC(=O)COC(=O)C1CCCN1S(=O)(=O)c1ccccc1F (stereo unspecified),-3%,5.5,0.3,i,2.8,0.71,.
O=C(NNC1=NCCN1Cc1ccccc1)c1cccc(C(F)(F)F)c1,-3%,-3.3,-4.0,i,5.8,0.66,4.8
COc1cc(/C=N/n2nnnc2N)ccc1OCC(N)=O,5%,.,1.3,.,.,.,0.8
O=C(COC(=O)c1cc(=O)[nH]c2ccccc12)NC(=O)NC1CCCCC1,6%,.,4.0,.,-19,0.67,2.0
Cn1c(CCN2CCCCC2)nc2cc(NC(=O)COc3ccc(Cl)cc3)ccc21,.,4.4,-0.7,i,2.0,0.66,3.8
CN1CCN(C2=NC3(CCCC3)C(C#N)C(=O)N2)CC1 (stereo unspecified),-8%,.,3.7,.,1.7,0.68,4.0
CC(C)N(C(=O)Cn1cc(SCC(=O)NCC2CCCO2)c2ccccc21)C(C)C (stereo unspecified),15%,-1.6,-1.0,i,5.2,0.65,5.0
CC(=O)c1cccc(NS(=O)(=O)c2c(C)n[nH]c2C)c1,7%,.,-4.0,.,1.6,0.75,5.5
NC(=O)CC(NC(=O)Cc1cccc2ccccc12)c1ccc(NCCCN2CCCC2=O)c([N+](=O)[O-])c1 (stereo unspecified),.,-4.0,-3.4,i,.,.,-2.6

# Looked up above:
# Vif A3G, O=C(COC(=O)c1cc(=O)[nH]c2ccccc12)NC(=O)NC1CCCCC1 → 6%
# Vif A3G, O=C(NNC1=NCCN1Cc1ccccc1)c1cccc(C(F)(F)F)c1 → -3%
# Ecoli growth, Cn1c(CCN2CCCCC2)nc2cc(NC(=O)COc3ccc(Cl)cc3)ccc21 → 0.66
# UCH37 inh, CC(C)N(C(=O)Cn1cc(SCC(=O)NCC2CCCO2)c2ccccc21)C(C)C (stereo unspecified) → 5.2
# Vif A3G, CN1CCN(C2=NC3(CCCC3)C(C#N)C(=O)N2)CC1 (stereo unspecified) → -8%

# Complete entries from above. Values in the order: Vif A3G | MLL AF4-AF9 inh | HNF4A DNA FP | FGF22 binding | UCH37 inh | Ecoli growth | RanGTP-Imp inh
# `Cn1c(CCN2CCCCC2)nc2cc(NC(=O)COc3ccc(Cl)cc3)ccc21` as listed: . | 4.4 | -0.7 | i | 2.0 | 0.66 | 3.8
# `CN1CCN(C2=NC3(CCCC3)C(C#N)C(=O)N2)CC1` (stereo unspecified) as listed: -8% | . | 3.7 | . | 1.7 | 0.68 | 4.0

# Assay outcomes deposited in PubChem BioAssay by several laboratories.
